Bioassay records: PubChem BioAssay, several laboratories
T cruzi repl: T. cruzi replication inhibition | AID 1885 | inhibition, % (concentration not given with the values) | T. cruzi beta-gal in NIH3T3, luminescence, 90 h | actives 1.4% (n = 300,000);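 active = mean inhibition across valid replicates above about 55%, limit read from the data; inconclusive = mean below that limit but half or more replicates reach it; inactive = mean below it, under half of replicates reach it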;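 also: signal also drops with host cell toxicity which is not excluded here; 0% = plate median of DMSO wells and 100% = zero luminescence signal; higher percent means less beta-gal luminescence so fewer parasites; stock transfer was 50 nL into about 50 µL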
Calb FLC: C. albicans growth modulation with fluconazole | C. albicans CaCi-2 (fluconazole-resistant clinical isolate) + fluconazole, Alamar Blue growth, 48 h | growth inhibition, % (test concentration not listed) | actives 0.57% (n = 300,000);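 active = most replicates above 75%; inconclusive = exactly half above 75%; inactive = most below 75%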;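 also: all wells also contain fluconazole at 8 µg/ml as a sub-toxic cotreatment; 0% = median of DMSO wells and 100% = median of geldanamycin control wells; wells of about 8 µL received 7.5 nL stock; the first replicate is given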
Bfl-1 A1 inh: inhibitors of the anti-apoptotic protein A1, read as caspase activation. MEF A1-2A-BIM cells, Caspase-Glo 3/7 luminescence, 3 h; percent of clofoctol response, vehicle zero. caspase activation, % (concentration not given with the values). actives 0.066% (n = 330,000). AID 2462;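 active = over half of replicate activation scores above 10%, or exactly half above 10 with the replicate mean above 10; inconclusive = replicate mean below 10 yet half the replicates above 10; inactive = over half of replicates below 10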;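 also: wells of about 30 µL received 50 nL stock; many hits fall short of the cut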
LANA-H2A inh: blocks KSHV LANA binding to histone H2A/H2B | Q9QR71 | cell-free LANA-H2A/H2B peptide, fluorescence polarization | inhibition, % (no concentration beside the values) | actives 0.6% (n = 320,000) | AID 2629; in the data active = inhibition mostly above about 10%, no sharp cut-off; inactive = mostly below about 6.7%;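 also: stock transfer was 7.5 nL into about 10 µL; 0% = median of vehicle wells and 100% = median of positive control wells; one replicate is shown; the record names a cut of 25% in any replicate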
RanGTP-Imp inh: disruptors of Ran-importin-beta complex formation – biochemical, FRET, CFP-Ran, YFP-importin-beta, homogeneous, primary screen; cell-free CFP-Ran/YFP-importin-beta FRET ratio; inhibition, % (no concentration beside the values); actives 1.1% (n = 300,000); AID 2216;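 active = most replicates above 15%; inconclusive = exactly half above 15%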;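 also: 0% = DMSO wells and 100% = Ran loaded with GDP instead of GTP; wells of about 40 µL received 100 nL stock; the first replicate is given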
UCH37 inh: inhibitors of human deubiquitinating enzyme UCH37 | Q9Y5K5 | purified proteasome/UCH37, Ub-AMC cleavage fluorescence | inhibition, % (test concentration not listed) | actives 0.33% (n = 330,000);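 active = mean of two replicates above 20%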;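 also: 0% = compound-free wells with enzyme and 100% = wells lacking proteasome; stock transfer was 100 nL into about 20 µL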
Target sequence (Q9Y5K5 whole entry, looked up): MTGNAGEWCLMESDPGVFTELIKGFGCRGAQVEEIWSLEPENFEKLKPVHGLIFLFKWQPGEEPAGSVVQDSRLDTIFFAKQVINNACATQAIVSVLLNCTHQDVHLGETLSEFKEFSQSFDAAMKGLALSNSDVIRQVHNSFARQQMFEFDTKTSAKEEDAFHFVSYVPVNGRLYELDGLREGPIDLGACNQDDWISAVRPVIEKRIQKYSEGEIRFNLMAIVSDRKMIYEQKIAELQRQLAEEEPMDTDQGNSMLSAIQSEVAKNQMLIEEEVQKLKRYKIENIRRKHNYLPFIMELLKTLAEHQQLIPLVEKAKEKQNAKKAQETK
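Material: human UCH37 enzyme supplied as purified proteasome complex / Amount: 0.15 nM proteasome as dispensed / Buffer or medium: pH 7.4 Tris-HCl (50 mM) with ovalbumin, ATP-MgCl2, DTT / Times: preincubation 30 min, reaction 25 min, room temperature / Technique: AMC fluorescence from Ub-AMC cleavage, excitation 355 nm, emission 460 nm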
Beta2AR agonist: activates human beta-2 adrenergic receptor causing internalization; P07550; Am2.2-beta2AR cells, FAP receptor internalization, flow cytometry; reference of the scale not given here; response, % (no concentration beside the values); actives 0.43% (n = 340,000); AID 504454;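 active = response above a set limit, near 3 SD of response in nonfluorescent compounds, cut at about 42% in these data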;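 also: stock transfer was 100 nL into about 11 µL; a reference agonist was the positive control; negative values mostly stem from fluorescent compounds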
Target sequence (P07550 whole entry, looked up): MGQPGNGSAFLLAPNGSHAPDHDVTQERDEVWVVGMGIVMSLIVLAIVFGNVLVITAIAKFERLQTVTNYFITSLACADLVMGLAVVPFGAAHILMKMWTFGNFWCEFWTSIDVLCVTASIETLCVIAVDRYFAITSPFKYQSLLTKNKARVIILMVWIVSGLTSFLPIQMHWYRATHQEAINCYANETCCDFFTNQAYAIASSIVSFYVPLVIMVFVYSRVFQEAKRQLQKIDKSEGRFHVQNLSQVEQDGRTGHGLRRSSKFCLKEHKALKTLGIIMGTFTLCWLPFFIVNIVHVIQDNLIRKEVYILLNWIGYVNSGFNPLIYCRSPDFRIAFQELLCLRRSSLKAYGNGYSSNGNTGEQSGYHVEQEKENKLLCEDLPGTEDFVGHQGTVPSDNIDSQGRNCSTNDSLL
Beta apoptosis: blocks beta cell apoptosis. INS-1E cytokine-induced death, ATP luminescence, 48 h; percent of positive-control rescue, neutral wells zero. protection from apoptosis, % (test concentration not listed). actives 0.8% (n = 300,000). AID 435005;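 active = all replicates at 75% or more, or half of them and the mean; inconclusive = half reach 75% but not the mean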;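 also: 0% = cytokine-treated negative control wells and 100% = positive control rescue; higher means more ATP so stronger rescue from cytokine killing; wells of about 40 µL received 100 nL stock; the first replicate is given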
Numbers without * were called inactive. Random draw from the library; 4.3% or so of the library scored in one or more.

What do the screens show for `O=C(c1ccncc1)c1ccc(Br)cc1`?
T cruzi repl: -3; Calb FLC: 2; Bfl-1 A1 inh: 0.0; LANA-H2A inh: -12; RanGTP-Imp inh: -9.2; UCH37 inh: 5.4; Beta2AR agonist: -9; Beta apoptosis: -9

What do the screens show for `CCN(C(=O)COc1cccnc1[N+](=O)[O-])C1CCS(=O)(=O)C1` (stereo not given)?
T cruzi repl: -12; Calb FLC: 1; Bfl-1 A1 inh: 2.5; LANA-H2A inh: -1.5; RanGTP-Imp inh: -1.2; UCH37 inh: 0.6; Beta2AR agonist: -3; Beta apoptosis: -3

How did Cc1ccc(-c2nc(CSCC(=O)N3CCOCC3)c(C)o2)cc1 do in these assays?
T cruzi repl: -13; Calb FLC: 4; Bfl-1 A1 inh: 0.2; LANA-H2A inh: -2.1; RanGTP-Imp inh: -4.1; UCH37 inh: 2.2; Beta2AR agonist: 1; Beta apoptosis: -6

What do the screens show for `O=C(O)C1CCN(C(=O)c2ccc3c(c2)OCO3)CC1`?
T cruzi repl: -15; Calb FLC: -6; Bfl-1 A1 inh: -1.2; LANA-H2A inh: -2.3; RanGTP-Imp inh: 1.0; UCH37 inh: 4.3; Beta2AR agonist: -4; Beta apoptosis: -2

What do the screens show for `CCOC(=O)c1ccc(NC(=S)N(CCCN2CCN(C)CC2)Cc2cccs2)cc1`?
T cruzi repl: 28; Calb FLC: -34; Bfl-1 A1 inh: 0.5; LANA-H2A inh: 2.8; RanGTP-Imp inh: inconclusive; UCH37 inh: -0.2; Beta2AR agonist: 2; Beta apoptosis: -6

Results for CCOc1ccc(C(=O)OCC(=O)Nc2cccnc2Cl)cc1OCC ?
Bfl-1 A1 inh: 0.4; LANA-H2A inh: 4.3; UCH37 inh: -0.6; Beta2AR agonist: 9; Beta apoptosis: -1

How did Cc1ccc(SCCC(=O)Nc2ccccc2C(=O)NC2CCCCC2)cc1 do in these assays?
T cruzi repl: 4; Calb FLC: 3; Bfl-1 A1 inh: 0.5; LANA-H2A inh: -1.4; RanGTP-Imp inh: 4.6; UCH37 inh: 4.9; Beta2AR agonist: 5; Beta apoptosis: -4

How did COCCCN(C(=O)CSCc1ccc(C)cc1)c1c(N)n(Cc2ccccc2)c(=O)[nH]c1=O do in these assays?
T cruzi repl: -6; Calb FLC: -2; Bfl-1 A1 inh: 0.2; LANA-H2A inh: -15; RanGTP-Imp inh: 2.1; UCH37 inh: -0.9; Beta2AR agonist: 0; Beta apoptosis: -3

How did Cc1nnc2n1N=C(c1ccc(F)cc1F)CS2 do in these assays?
Bfl-1 A1 inh: 0.2; LANA-H2A inh: 6.3; Beta2AR agonist: 1; Beta apoptosis: -3

Results for CCCCn1nc(C(=O)N[C@@H](CCSC)c2nc3ccccc3[nH]2)c2ccccc2c1=O ?
T cruzi repl: 14; Calb FLC: 18; Bfl-1 A1 inh: -0.1; LANA-H2A inh: -3.6; RanGTP-Imp inh: 7.9; UCH37 inh: 0.1; Beta2AR agonist: 0; Beta apoptosis: 7

Results for Cc1ccc(C(OCC(O)CN2CCCCC2CO)c2ccccc2)cc1 (stereo not given) ?
T cruzi repl: 0; Calb FLC: -18; Bfl-1 A1 inh: 0.0; LANA-H2A inh: -2.6; RanGTP-Imp inh: -1.6; UCH37 inh: 4.0; Beta2AR agonist: -1; Beta apoptosis: -3

Results for Cc1noc(C)c1COc1ccc(C(=O)OCC(=O)NC(=O)C2COc3ccccc3O2)cc1 (stereo not given) ?
T cruzi repl: 6; Calb FLC: 0; RanGTP-Imp inh: 0.3; UCH37 inh: 0.6; Beta2AR agonist: -1

Results for COc1cc(OC)cc(C(=O)NCC(=O)N2CCN(S(=O)(=O)c3ccccc3F)CC2)c1 ?
Bfl-1 A1 inh: -0.1; LANA-H2A inh: 3.6; UCH37 inh: 0.9; Beta2AR agonist: 0; Beta apoptosis: -8

What do the screens show for `O=C(/C=C/c1ccccc1)C1=C(O)C(=O)N(CCO)C1c1ccc2c(c1)OCO2` (stereo not given)?
T cruzi repl: -3; Calb FLC: 9; Bfl-1 A1 inh: 0.5; LANA-H2A inh: -2.3; RanGTP-Imp inh: 0.3; UCH37 inh: 14; Beta2AR agonist: -7; Beta apoptosis: -4

Results for N/C(=N\OC(=O)C1CCCCC1)c1ccncc1 ?
T cruzi repl: -14; Calb FLC: -4; Bfl-1 A1 inh: 0.6; LANA-H2A inh: -3.7; RanGTP-Imp inh: -0.2; UCH37 inh: -1.7; Beta2AR agonist: -3; Beta apoptosis: -7

What do the screens show for `CC(NCc1ccc(S(N)(=O)=O)cc1)C(=O)Nc1cc([N+](=O)[O-])ccc1Cl` (stereo not given)?
T cruzi repl: 7; Calb FLC: -7; Bfl-1 A1 inh: 0.0; LANA-H2A inh: 2.8; RanGTP-Imp inh: -0.7; UCH37 inh: 2.6; Beta2AR agonist: -11; Beta apoptosis: -6

What do the screens show for `Cc1ccc(S(=O)(=O)N2CCN(CC(=O)N3CCOCC3)CC2)cc1`?
T cruzi repl: -3; Calb FLC: -11; Bfl-1 A1 inh: 1.9; LANA-H2A inh: 3.8; RanGTP-Imp inh: 0.9; UCH37 inh: 4.6; Beta2AR agonist: -2; Beta apoptosis: -7

What do the screens show for `CN=C1SC(C(=O)O)CC(=O)N1C` (stereo not given)?
T cruzi repl: -1; Calb FLC: -2; Bfl-1 A1 inh: -0.8; LANA-H2A inh: 0.6; RanGTP-Imp inh: inconclusive; UCH37 inh: 1.5; Beta2AR agonist: 0; Beta apoptosis: -2

Results for CCOC(=O)N/N=C/C=C/c1ccccc1 ?
T cruzi repl: -1; Calb FLC: -2; Bfl-1 A1 inh: 0.5; LANA-H2A inh: 5.2; RanGTP-Imp inh: 2.5; Beta2AR agonist: 2

What do the screens show for `N/C(=N\OC(=O)Cc1ccc(-c2ccccc2)cc1)c1cccnc1`?
T cruzi repl: -25; Calb FLC: -5; Bfl-1 A1 inh: -0.7; LANA-H2A inh: -1.0; RanGTP-Imp inh: 4.9; UCH37 inh: -1.1; Beta2AR agonist: 1; Beta apoptosis: 3

Results for COc1ccc([C@H]2CC(=O)C=C(c3ccccc3)C2)cc1OC ?
Bfl-1 A1 inh: -0.9; LANA-H2A inh: 0.7; UCH37 inh: 4.9; Beta2AR agonist: -2; Beta apoptosis: -1

What do the screens show for `c1ccc(CCc2nc3ccccc3[nH]2)cc1`?
T cruzi repl: -13; Calb FLC: -9; Bfl-1 A1 inh: -6.3; LANA-H2A inh: -1.9; RanGTP-Imp inh: -2.4; UCH37 inh: 0.6; Beta2AR agonist: -4; Beta apoptosis: 2

How did CCOC(=O)N1CCC(N2Cc3cccc(C(=O)Nc4ccc(F)cc4)c3C2=O)CC1 do in these assays?
T cruzi repl: 17; Calb FLC: inconclusive; Bfl-1 A1 inh: 2.8; LANA-H2A inh: 5.9; RanGTP-Imp inh: -2.3; UCH37 inh: 3.0; Beta2AR agonist: -6; Beta apoptosis: 5

How did O=C(NCc1cccs1)c1cc(-c2cccs2)on1 do in these assays?
T cruzi repl: 10; Calb FLC: -28; Bfl-1 A1 inh: -1.5; LANA-H2A inh: -4.6; RanGTP-Imp inh: 0.4; UCH37 inh: 3.6; Beta2AR agonist: 16; Beta apoptosis: -4

How did CC1CC(C)CN(C(=O)CCc2nnc3ccc(N4CCCCC4)nn23)C1 (stereo not given) do in these assays?
T cruzi repl: -10; Calb FLC: -3; Bfl-1 A1 inh: 0.3; LANA-H2A inh: -0.4; RanGTP-Imp inh: 1.3; UCH37 inh: 8.6; Beta2AR agonist: -15; Beta apoptosis: 1

What do the screens show for `CNc1nc(SC(C)C(=O)Nc2ccc(Cl)c(Cl)c2)nc(N2CCOCC2)n1` (stereo not given)?
T cruzi repl: 16; Calb FLC: 10; Bfl-1 A1 inh: 0.2; LANA-H2A inh: 1.1; RanGTP-Imp inh: 2.8; UCH37 inh: 5.3; Beta2AR agonist: -2; Beta apoptosis: -1

How did CCOC(=O)Cc1csc(N/N=C\c2cccc(Br)c2)n1 do in these assays?
T cruzi repl: 8; Calb FLC: -3; Bfl-1 A1 inh: -2.4; LANA-H2A inh: 4.9; RanGTP-Imp inh: -3.2; Beta2AR agonist: 0; Beta apoptosis: -9

Results for COc1cc(Cl)c(CN2CCC(CO)(CCOc3ccccc3)CC2)cc1OC ?
T cruzi repl: 11; Calb FLC: -5; Bfl-1 A1 inh: 0.2; LANA-H2A inh: -0.8; RanGTP-Imp inh: 1.9; UCH37 inh: 3.7; Beta2AR agonist: -3; Beta apoptosis: 1

Results for CC(C)n1cc(CN2CCC(Oc3ccc(C(=O)N4CCCC4)cc3)CC2)cn1 ?
T cruzi repl: 8; Calb FLC: -1; Bfl-1 A1 inh: 0.0; LANA-H2A inh: 49*; RanGTP-Imp inh: -0.5; UCH37 inh: 3.6; Beta2AR agonist: 0

Results for CCCOC(=O)C(C)n1c(-c2ccccc2)nc2ccccc2c1=O (stereo not given) ?
T cruzi repl: 20; Calb FLC: 12; Bfl-1 A1 inh: 0.2; LANA-H2A inh: -5.2; RanGTP-Imp inh: 6.2; UCH37 inh: 2.0; Beta2AR agonist: -5; Beta apoptosis: -4

What do the screens show for `COC(=O)c1ccc(CSc2nnc(CNC(=O)COc3ccc(Cl)cc3)o2)o1`?
T cruzi repl: 0; Calb FLC: -1; Bfl-1 A1 inh: 0.9; LANA-H2A inh: -0.9; RanGTP-Imp inh: -1.7; UCH37 inh: 4.3; Beta2AR agonist: 10; Beta apoptosis: -4

How did c1ccc(-c2cn3c(n2)-c2ccccc2C3)cc1 do in these assays?
T cruzi repl: -4; Calb FLC: -8; Bfl-1 A1 inh: -6.7; LANA-H2A inh: 1.9; RanGTP-Imp inh: -0.3; UCH37 inh: -5.2; Beta2AR agonist: -6; Beta apoptosis: 42

Results for COc1ccc([C@@H]2[C@@H]3C(=O)N(C(C)(C)C)C(=O)[C@@H]3[C@]3(C)C(=O)N(c4cccc(F)c4)C(=O)N23)cc1 ?
T cruzi repl: 9; Calb FLC: -12; Bfl-1 A1 inh: 1.2; LANA-H2A inh: -2.9; RanGTP-Imp inh: inconclusive; UCH37 inh: 1.3; Beta2AR agonist: -6; Beta apoptosis: -17

Results for COc1cc(NC(=S)NC(=O)c2ccccc2F)ccc1NC(=O)c1cccs1 ?
T cruzi repl: -1; Calb FLC: 7; Bfl-1 A1 inh: -0.1; LANA-H2A inh: 0.1; RanGTP-Imp inh: inconclusive; UCH37 inh: 4.6; Beta2AR agonist: 0; Beta apoptosis: 0

What do the screens show for `CCNc1sc(C(=O)c2cccs2)c(N)c1C#N`?
T cruzi repl: -32; Calb FLC: 19; Bfl-1 A1 inh: 0.6; LANA-H2A inh: -3.0; RanGTP-Imp inh: 3.5; UCH37 inh: -11; Beta2AR agonist: 9

Results for COc1cc(C(=O)NNC(=O)c2ccco2)cc(OC)c1OC ?
T cruzi repl: 5; Calb FLC: -2; Bfl-1 A1 inh: 0.8; LANA-H2A inh: -0.2; RanGTP-Imp inh: -2.7; UCH37 inh: 6.2; Beta2AR agonist: 13; Beta apoptosis: 2
